Assay outcomes deposited in PubChem by National Center for Advancing Translational Sciences (NCATS).
Rango-impB inh – prevents formation of the Rango-importin beta complex | hit rate 0.031% among 340,000 | Rango CFP/YFP FRET sensor + importin beta, 45 min | Potency, µM (top dose mostly 92.2 µM), without a hit: top-dose inhibition of complex formation | AID 540263 | Q14974; active = rising FRET ratio curve, often small or poorly fitted; inconclusive = mostly compound fluorescence or quenching in the first reads; inactive = flat curves in all reads;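 also: potency is read from the fitted curve at half-maximal effect; 0% = DMSO wells and 100% = buffer wells lacking importin beta; nearly all actives have a fitted effect of over 15% in size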
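Inhibition scored from the CFP 486 nm/YFP 530 nm FRET ratio 45 min after adding 0.125 microM importin beta to 50 nM Rango biosensor preincubated 5 min with compound (room temperature, PBS with DTT, Tween-20, BSA). No-importin wells as positive control.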
Rango release inh – prevents RanGTP from dissociating the Rango-importin beta complex; hit rate 0.071% among 340,000; Biochemical FRET Rango-importin beta, RanGTP-induced dissociation; Potency, µM (titrated, usually from 46.1 µM), without a hit: at the top dose activity change, negative = inhibition; O95149+P62826; active means falling FRET ratio curve, often poorly fitted, with flat reads before Ran was added; inconclusive means other falling curves, or compound fluorescence or quenching; inactive means flat or rising ratio curve;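 also: potency is read from the fitted curve at half-maximal effect; % of control where 0% means no effect; nearly all actives have a fitted effect of over 45% in size; -100% = wells without RanGTP and RCC1; the record marks most hits as doubtful in a second field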
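Compounds sat 5 min at room temperature with 0.1 uM Rango biosensor plus 0.25 uM importin beta, then FRET pre-read. RanGTP-RCC1 (0.6 uM Ran, 2mM GTP, 0.2 uM RCC1) added for 45 min, and the CFP/YFP post-read measured blocked complex dissociation.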
miR-21 FLuc – miR-21 reporter, rising signal. HeLa miR-21 FLuc reporter, luciferase, 48 h. Potency, µM (highest dose often 38.3 µM), for inactives: top-dose reporter change, positive = more light. 340,000 tested, under 10 active. AID 2288; active = well fitted rising curve with a large enough effect; inconclusive = small, poorly fitted or top-dose-only effect; inactive = no such curve, though single readings can be large or run the other way;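 also: % of control where 0% means no effect; miR-21 action dims this reporter so a rising signal means less miR-21 action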
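HeLa miR-21-FLuc reporter line, endogenous miR-21; 2000 cells/well in DMEM/10% FBS; compound titration up to ~40uM final, 48 h, 37 degree Celsius; luciferase detection reagent, 15 min lysis, CCD luminescence.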
GLA inh pH 4.5 – blocks human alpha-galactosidase A at pH 4.5 | P06280 | purified enzyme, 4-MU-alpha-Gal fluorescence, pH 4.5 | activity change, negative = inhibition, % at 105 µM | 230,000 tested, under 10 active | AID 1467; inconclusive = small, poorly fitted or top-dose-only inhibition, or a rising curve; inactive = flat fitted curve, though single readings scatter; no compound was filed as active;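 also: 0% = full activity with enzyme and -100% = basal without enzyme; dose as in the result columns while the protocol names 77 µM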
Target sequence (P06280 whole entry, looked up): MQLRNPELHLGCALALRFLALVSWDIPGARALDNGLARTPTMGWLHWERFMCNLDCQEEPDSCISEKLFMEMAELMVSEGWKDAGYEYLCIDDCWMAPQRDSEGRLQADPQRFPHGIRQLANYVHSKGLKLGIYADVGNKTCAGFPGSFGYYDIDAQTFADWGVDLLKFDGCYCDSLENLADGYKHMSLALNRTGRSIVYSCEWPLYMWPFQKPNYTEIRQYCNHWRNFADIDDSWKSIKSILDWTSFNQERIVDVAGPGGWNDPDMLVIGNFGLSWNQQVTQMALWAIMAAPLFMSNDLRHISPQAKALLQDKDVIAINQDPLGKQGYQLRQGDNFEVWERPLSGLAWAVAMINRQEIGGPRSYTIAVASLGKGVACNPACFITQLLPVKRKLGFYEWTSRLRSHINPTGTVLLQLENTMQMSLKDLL
The depositor's hits bear a star; u = inconclusive; x = no result given; & = joins results of further samples. An excerpt; count on the stated rates, not on these rows.

Rango-impB inh	Rango release inh	miR-21 FLuc	GLA inh pH 4.5	Molecule
-1.8%	-6.1%	-16.5%	x	N#Cc1cc(Cl)c(NCC2CCCO2)cc1C#N (stereo not given)
-1.1%	10.8%	3.7%	x	CC(C)CNC(=O)C1CCN(S(=O)(=O)c2ccc(-n3cnnn3)cc2)CC1
-1.9%	-5.3%	x	x	Cc1cccnc1
0.2%	-1.4%	-8.7%	-9.3	Cc1ccc(NC(=O)CCC(=O)NNC(=O)Cc2ccccc2)cc1C
-2.7%	-0.8%	-1.8%	-9.2	O=C(NCc1ccccc1)NC1(C(=O)N2CCN(c3ncccn3)CC2)CCCCC1
-2.3%	-28.2%	1.3%	2.3	Cc1ccc(S(=O)(=O)NC(CC(=O)NCc2ccco2)c2ccco2)cc1 (stereo not given)
5.1%	3.9%	19.6%	-0.4	COc1ccc(S(=O)(=O)Nc2cc3c4c(oc3c3ccccc23)CC(C)(C)CC4=O)cc1
0.0%	-9.8%	-2.1%	0.3	COCCNC(=O)/C(C#N)=C/c1ccc2c(c1)OCO2
6.0%	-9.4%	-1.3%	9.9	Cc1ccc(N2CC(C(=O)O)CC2=O)cc1 (stereo not given)
4.1%	1.3%	u	-0.7	Cc1cccc(Nc2nc(NCc3ccco3)c3ccccc3n2)c1
2.9%	13.1%	-3.4%	3.4	CCOC(=O)c1ccc(C(=O)OCC)nc1
-0.9%	-6.2%	-3.0%	x	CCOC(=O)C(CCC(C)=O)C(=O)c1ccccc1 (stereo not given)
-0.5%	0.5%	-0.8%	-3.0	CN1OC2C(=O)N(c3ccccc3)C(=O)C2C1c1ccc(F)cc1 (stereo not given)
x	x	-3.6%	1.9	Cc1cc(C)n2nc(SCC(=O)N(C)c3c(N)n(Cc4ccccc4)c(=O)[nH]c3=O)nc2n1
0.6%	15.7%	-1.4%	2.8	CSc1nc2c(c(=O)[nH]1)C(c1cccs1)C1=C(CCCC1=O)N2 (stereo not given)

2 entries from above, bar-delimited.
SMILES | Rango-impB inh | Rango release inh | miR-21 FLuc | GLA inh pH 4.5
CN1OC2C(=O)N(c3ccccc3)C(=O)C2C1c1ccc(F)cc1 (stereo not given) | -0.5% | 0.5% | -0.8% | -3.0
CCOC(=O)C(CCC(C)=O)C(=O)c1ccccc1 (stereo not given) | -0.9% | -6.2% | -3.0% | x

Later entries:
Rango-impB inh	Rango release inh	miR-21 FLuc	GLA inh pH 4.5	Molecule
0.5%	-8.5%	-8.7%	-6.3	CCOC(=O)C(=CNc1cscc1S(=O)(=O)C(C)C)C(=O)OCC
1.2%	-11.5%	28.3%	-7.4	O=P(OC1CCCCC1)(OC1CCCCC1)C(Nc1ccccc1)c1cccnc1 (stereo not given)
4.4%	-2.1%	-17.9%	-4.5	O=C(O)/C=C/c1cn(-c2ccccc2)nc1-c1ccc2c(c1)OCCO2
2.1%	1.2%	-3.2%	-1.1	CC1CCN(C(=O)CN(C2CCCCC2)S(C)(=O)=O)CC1
-3.5%	-4.8%	-14.6%	7.5	C=CCc1c(O)nc(SCC(=O)c2ccccc2)[nH]c1=O
-4.4%	0.9%	-3.4%	7.1	Cc1ccnc(-n2c(C)cc(C=O)c2C)c1
0.0%	-7.6%	2.3%	-5.6	Cc1nc(C(C)N(C)Cc2nc(Cc3ccccc3F)no2)c(C)s1 (stereo not given)
3.2%	-7.6%	-1.5%	-4.9	COc1cc(CNC(C)(C)C)cc(Br)c1OCc1cccs1
-2.4%	13.8%	x	x	CCN(CC(=O)Nc1c(F)cccc1F)C(=O)C1CC(=O)N(CCc2ccccc2)C1 (stereo not given)
3.3%	16.3%	x	x	CC(C)C[C@H]1CNC(=O)C(=O)N1CC1CCN(CCc2ccc(-c3ccccc3)cc2)CC1
1.6%	1.9%	-11.6%	5.5	Cc1ccc(CSc2nncn2-c2ccccn2)cc1
-3.3%	0.5%	10.9%	x	CCCNC(=O)NC(=O)CN1C(=O)NC(C)(c2ccc3ccccc3c2)C1=O (stereo not given)
0.1%	3.1%	-25.7%	-0.2	O=C(NCc1ccccn1)c1ccc(N2CCCC2=O)cc1
4.6%	28.4%	-24.2%&-26.7%	-8.8	CCN1CCN(c2cc(C)c3cc(NC(=O)c4cc(OC)cc(OC)c4)ccc3n2)CC1
-1.2%	1.5%	-5.8%	1.5	CCOc1cccc(OCCOCCN(C)Cc2ccccc2)c1

Following part.
Rango-impB inh	Rango release inh	miR-21 FLuc	GLA inh pH 4.5	Molecule
5.7%	17.0%	-0.6%	4.9	O=C(CN1C(=O)c2cccc3cccc(c23)C1=O)N1CCN(c2ccccn2)CC1
-0.9%	0.1%	x	x	Cc1ccc(S(=O)(=O)N2CCOCC2)cc1C(=O)Nc1cc(Cl)ccc1N1CCOCC1
-2.7%	6.7%	-9.0%	-3.9	CCOC(=O)CN1CC23C=CC(O2)C(C(=O)Nc2ccc(OC)cc2OC)C3C1=O (stereo not given)
u	u	-16.4%	x	CCN1C(=O)c2cccc3c(Cl)ccc1c23
-1.5%	-4.1%	-0.6%	-1.7	Cc1cc(=O)[nH]c(SCC(=O)Nc2ccccc2C)n1
1.1%	3.8%	0.7%	x	CC(=O)Nc1nnc(/C=C/c2cccc([N+](=O)[O-])c2)s1
0.3%	1.0%	-12.2%	-0.7	O=C(NCCc1ccc2c(c1)OCCO2)c1cc(F)cc(F)c1
-0.2%	3.0%	-5.4%	x	CC(C)c1ccc(NC2CCCN(C(=O)c3cscn3)C2)cc1 (stereo not given)
-1.7%	-18.9%	x	x	O=C1CN(C(=O)COc2ccc(Cl)c(Cl)c2)c2ccccc2N1
0.0%	32.6%	0.9%	1.2	CC(NCc1cccn1C)c1ccccc1 (stereo not given)
2.0%	21.7%	0.8%	-7.7	COc1ccc2cc(CCNC(=O)c3c(-c4ccccc4Cl)noc3C)c(=O)[nH]c2c1
-0.1%	-5.4%	-0.2%	5.4	CO/N=C/NC(=O)N1OC[C@@H]2COc3ccc4ccccc4c3[C@@H]21
0.5%	-23.3%	-7.6%	4.8	Cc1ccc2c(C(=O)CN3CCCCC3CCO)c(C)[nH]c2c1 (stereo not given)
x	x	-1.5%	-10.9	O=C(Cn1c(N2CCN(C/C=C/c3ccccc3)CC2)nc2ccccc21)c1ccccc1
u	8.2µM*	-8.9%	8.1	CN1Cc2c(N3CCOCC3)nc(SCc3ccccc3)c(C#N)c2CC1(C)C

New compounds follow:
Rango-impB inh	Rango release inh	miR-21 FLuc	GLA inh pH 4.5	Molecule
-0.1%	14.4%	-8.1%	1.5	CC(C)(C)[C@H]1C=C(C(=O)Nc2ccccc2)O[C@@H](OCc2ccc(CO)cc2)C1
2.4%	-1.4%	6.8%	x	COc1ccc(C(=O)C2CCCN(Cc3c(O)cccc3OC)C2)cc1OC (stereo not given)
-0.4%	1.5%	-14.0%	5.0	COC(=O)c1cccc(NC(=O)c2cccs2)c1C
-4.2%	-15.3%	0.5%	x	CCCCN(C)C(=O)c1nc2ccccn2c1CN1CCC[C@H]1CO
-0.7%	26.3%	-14.1%	6.0	O=C(N/N=C/c1ccncc1)c1cc(Br)ccc1OCc1ccccc1
-1.0%	-3.9%	-22.8%	-16.7	Cc1ccc(NC(=O)CNCc2ccccn2)cc1S(=O)(=O)N(C)C
-0.2%	-17.6%	-6.8%	1.1	O=C(O)/C=C/c1ccc(S(=O)(=O)N2CCCCCC2)cc1
3.7%	10.6%	-1.3%	-11.8	COc1ccc(-c2cc(N)n(S(=O)(=O)c3ccc(C)cc3)n2)c(OC)c1
-2.9%	-8.4%	-0.7%	-10.7	COc1cc(/C=C2\CCCc3c2nc2ccccc2c3C(=O)O)cc(OC)c1O
-3.8%	-12.0%	x	x	COc1ccc(S(=O)(=O)N2CCN(Cc3cccs3)CC2)cc1OC
-1.2%	-12.3%	-5.2%	-18.2	CCCNc1ncnc2nc[nH]c12
u	-21.7%	0.9%	9.4	Cc1nc2c(nnn2Cc2ccccc2)c(=O)[nH]1
6.3%	39.9%	15.0%	2.6	O=S(=O)(c1cccs1)N1CCN(CC(O)COc2cccc(Br)c2)CC1 (stereo not given)
-0.3%	1.0%	-6.5%	-2.5	COc1cc(C(=O)Nc2nnc(SC)s2)c([N+](=O)[O-])cc1OC
3.1%	7.8%	x	x	Cc1c(C(=O)N/N=C/c2ccncc2)nnn1-c1nonc1N

Additional records:
Rango-impB inh	Rango release inh	miR-21 FLuc	GLA inh pH 4.5	Molecule
0.3%	-8.9%	-0.8%	4.8	CN(C)CCCNC(=O)CCc1nc2ccccc2c(=O)[nH]1
u	-4.0%	-3.2%	-7.3	COc1ccc2nc(C)cc(SCC(=O)Nc3c(C)cccc3C)c2c1
0.8%	3.3%	-4.4%	x	COc1ccc(CC(=O)N/N=C(\C)CC(=O)Nc2ccc3c(c2)OCCO3)cc1
0.3%	-2.4%	-0.5%	0.4	COc1cc(C2C3=C(CCCC3=O)Nc3ccc4ncccc4c32)ccc1O (stereo not given)
-0.3%	0.8%	-4.8%	-0.6	CCc1ccc2[nH]c(=O)c(CN(CCCN3CCOCC3)C(=O)Nc3ccc(F)cc3)cc2c1
-0.7%	4.0%	5.7%	-9.1	Fc1cccc(F)c1/C=N/NC(=S)Nc1cccnc1
2.2%	-0.1%	-39.3%	x	CCCCC(=O)Nc1cnc(NC(=O)c2ccco2)cc1C
6.2%	4.5%	-5.5%	7.0	C/C(NC1CCCCC1)=C(/C#N)C(=O)NCCN1CCOCC1
1.8%	9.6%	6.6%	-2.0	O=C1CC(Sc2cccs2)C(=O)N1c1ccccc1 (stereo not given)
-1.0%	-26.1%	x	x	CC(C)(C)n1ncc2c(=O)n(Cc3ccccc3Br)cnc21
2.0%	12.4%	-2.0%	-5.4	Cc1ccc(N(CC(=O)NC2CCCCCC2)S(=O)(=O)c2c(C)nn(C)c2C)cc1
5.4%	-6.7%	0.9%	x	O=C(Oc1cccc(OC(=O)c2ccco2)c1)c1ccco1
-1.3%	15.6%	x	x	O=C(NCC(c1cccs1)N1CCOCC1)c1ccc(OCc2ccccc2)cc1 (stereo not given)
-4.4%	-13.0%	12.0%	2.0	O=C(Nc1nc2c(s1)CCCC2)C1CCCN1C(=O)c1cccs1 (stereo not given)
-3.5%	-12.5%	-6.3%	-4.9	Clc1ccc(-c2noc(CN(Cc3ccccn3)CC3CCCO3)n2)cc1 (stereo not given)

Further entries follow.
Rango-impB inh	Rango release inh	miR-21 FLuc	GLA inh pH 4.5	Molecule
u	-1.8%	0.1%	3.4	COc1ccccc1NC(=S)N(Cc1ccco1)Cc1cc2cc(C)ccc2[nH]c1=O
-0.4%	8.2%	-3.4%	0.3	CCc1ccc2[nH]c(O)c(N=Nc3nc(-c4ccccc4)cs3)c2c1
-2.5%	-3.7%	-0.1%	x	COc1ccc(C)cc1NC(=O)CN(C)C1CCCCC1
-0.6%	-0.8%	x	x	O=C1Nc2c(Br)cccc2C1=O
1.6%	0.6%	-52.5%	x	COC(=O)CSc1nnc(NC(=O)c2ccc3c(c2)OCO3)s1
u	3.9%	x	x	O=C(NCCC1=CCCCC1)c1cc(S(=O)(=O)N2CCOCC2)ccc1Cl
2.9%	-20.2%	x	x	CC[C@H](C)[C@H](NC(=O)OCc1ccccc1)C(=O)OCC(=O)Nc1ccc(N2CCOCC2)cc1
7.1%	4.5%	-28.5%	6.8	Cn1ccnc1SCC(=O)Nc1ccc2c(c1)COC2=O
3.5%	0.9%	1.9%	1.4	O=C(COC(=O)c1ccc([N+](=O)[O-])o1)NC1CCS(=O)(=O)C1 (stereo not given)
2.3%	23.4%	x	-6.0	COc1cc(OC)c2c(-c3cccc(-c4cccc(N)c4)c3)cc(=O)oc2c1
-9.3%	3.2%	6.6%	-2.2	N#Cc1ccc(C(c2nnnn2CCc2ccccc2)N2CCCCCC2)cc1 (stereo not given)
-1.1%	-7.2%	-1.3%	0.9	O=C1CC(N2CCN(C(c3ccccc3)c3ccccc3)CC2)C(=O)N1 (stereo not given)
5.1%	u	-9.1%	-0.9	COc1ccc(-n2nc(C)cc2Nc2ccccc2C(=O)O)cc1
u	-10.8%	-4.6%	x	CCCN1CCN(S(=O)(=O)c2cn(C)nc2C)CC1
3.8%	0.2%	x	x	O=C(CSc1nncs1)NCCNC(=O)CSc1nncs1
